Vif TR-FRET: inhibitors of Vif binding to APOBEC3G peptide, primary screen, biochemical, TR-FRET, GST-Vif 1-94, biotin-A3G peptide, dose response retest (AID 1117319); actives 0.57% (n = 260,000); inhibition, %, or IC50 in µM where a hit was titrated; TR-FRET GST-Vif / biotin-A3G peptide binding; higher % means a stronger effect; test concentration not given here; strong numbers were not always called active;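 active = above the screen mean plus three standard deviations and confirmed in dose response; inconclusive = results disagree or hit not tested in dose response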;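 also: Vif residues 1-94 fused to GST binding biotinylated APOBEC3G peptide 110-148; 0% = full assay without inhibitor and 100% = GST in place of GST-Vif; retest series ran down from 100 µM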
Calb FLC: affects C. albicans growth with fluconazole. actives 0.57% (n = 300,000). C. albicans CaCi-2 (fluconazole-resistant clinical isolate) + fluconazole, Alamar Blue growth, 48 h. growth inhibition, % (test concentration not listed);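 active = most replicates above 75%; inconclusive = exactly half above 75%; inactive = most below 75%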;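 also: all wells also contain fluconazole at 8 µg/ml as a sub-toxic cotreatment; 0% = median of DMSO wells and 100% = median of geldanamycin control wells; wells of about 8 µL received 7.5 nL stock; the first replicate is given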
RanGTP-Impb inh: inhibitors of RanGTP-importin-beta interaction, primary screen, biochemical, FRET, CFP-Ran, YFP-importin-beta, homogeneous; inhibition, % (no concentration beside the values); actives 1.1% (n = 300,000); AID 2216; cell-free CFP-Ran/YFP-importin-beta FRET ratio;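 active = most replicates above 15%; inconclusive = exactly half above 15%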;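 also: 0% = DMSO wells and 100% = Ran loaded with GDP instead of GTP; wells of about 40 µL received 100 nL stock; the first replicate is given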
A1 inh: inhibitors of the anti-apoptotic protein A1, read as caspase activation | caspase activation, % (no concentration beside the values) | AID 2462 | actives 0.066% (n = 330,000) | MEF A1-2A-BIM cells, Caspase-Glo 3/7 luminescence, 3 h; percent of clofoctol response, vehicle zero;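 active = over half of replicate activation scores above 10%, or exactly half above 10 with the replicate mean above 10; inconclusive = replicate mean below 10 yet half the replicates above 10; inactive = over half of replicates below 10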;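 also: wells of about 30 µL received 50 nL stock; many hits fall short of the cut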
Beta apoptosis: beta cell apoptosis inhibition; INS-1E cytokine-induced death, ATP luminescence, 48 h; percent of positive-control rescue, neutral wells zero; protection from apoptosis, % (test concentration not listed); actives 0.8% (n = 300,000); AID 435005;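 active = all replicates at 75% or more, or half of them and the mean; inconclusive = half reach 75% but not the mean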;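 also: 0% = cytokine-treated negative control wells and 100% = positive control rescue; higher means more ATP so stronger rescue from cytokine killing; wells of about 40 µL received 100 nL stock; the first replicate is given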
MLL AF4-AF9 inh: MLL-AF4/AF9 protein interaction inhibition. actives 0.47% (n = 350,000). P42568. AID 651704. AlphaScreen, biotin-AF4 peptide binding to FLAG-AF9. inhibition, % at 10 µM;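 active = every replicate reaching a set inhibition limit, whatever the replicate mean, cut at about 25% in these data; inconclusive = mean inhibition reaches that limit but some replicates miss it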;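 also: 0% = plate neutral control median and 100% = total signal loss; the record names both 10 and 1 µM as test concentration; the first replicate is given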
Target sequence (P42568 whole entry, looked up): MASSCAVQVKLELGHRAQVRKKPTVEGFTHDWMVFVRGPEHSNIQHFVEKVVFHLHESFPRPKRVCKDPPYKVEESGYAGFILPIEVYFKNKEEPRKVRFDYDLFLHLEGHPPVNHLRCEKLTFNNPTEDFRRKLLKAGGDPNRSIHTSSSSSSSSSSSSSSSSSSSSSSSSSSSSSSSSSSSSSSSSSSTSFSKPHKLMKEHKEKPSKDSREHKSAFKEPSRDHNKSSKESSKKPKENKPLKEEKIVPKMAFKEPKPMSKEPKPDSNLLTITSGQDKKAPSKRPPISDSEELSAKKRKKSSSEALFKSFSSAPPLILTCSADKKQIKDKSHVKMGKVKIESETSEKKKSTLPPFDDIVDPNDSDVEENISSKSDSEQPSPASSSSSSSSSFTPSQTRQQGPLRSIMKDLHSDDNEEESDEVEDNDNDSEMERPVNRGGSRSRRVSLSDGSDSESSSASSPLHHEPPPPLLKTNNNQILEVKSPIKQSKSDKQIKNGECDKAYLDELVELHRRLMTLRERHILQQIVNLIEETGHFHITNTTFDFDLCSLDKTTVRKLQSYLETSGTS
Ecoli rRNA inh: selective bacterial rRNA inhibition in E. coli; E. coli WT GFP vs humanized-ribosome RFP mutants, fluorescence, 24 h; active compounds read low; DMSO median 0, no signal -100; GFP signal change (wild-type ribosome), % (no concentration beside the values); actives 1.6% (n = 350,000); AID 720706;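 active = significant combined selectivity score with lowered wild-type GFP, culture density cut under 30%, mutant RFP and density less affected; inactive = any of these conditions unmet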; also: one replicate is shown; some compounds called inactive have numbers as strong as hits
T cruzi inh: T. cruzi replication inhibition; T. cruzi beta-gal in NIH3T3, luminescence, 90 h; inhibition, % (concentration not given with the values); actives 1.4% (n = 300,000); AID 1885;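 active = mean inhibition across valid replicates above about 55%, limit read from the data; inconclusive = mean below that limit but half or more replicates reach it; inactive = mean below it, under half of replicates reach it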;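 also: signal also drops with host cell toxicity which is not excluded here; 0% = plate median of DMSO wells and 100% = zero luminescence signal; higher percent means less beta-gal luminescence so fewer parasites; stock transfer was 50 nL into about 50 µL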
Ecoli rRNA inh OD600: also measured in Ecoli rRNA inh; calls as there; OD600 change, %; measured here: OD600 growth;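 optical density of the mix in the first replicate; 0 = DMSO median and -100 = no signal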
Ecoli rRNA inh RFP: further read-out of Ecoli rRNA inh, marked with its call; RFP signal change, %; measured here: RFP humanized mutant strains;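 first replicate; 0 = DMSO median and -100 = no signal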
* hit, by the source's call; ? = inconclusive; / = no result given. These rows are one share of the data. The share of hits here may be higher or lower than overall.

#	SMILES	Vif TR-FRET	Calb FLC	RanGTP-Impb inh	A1 inh	Beta apoptosis	MLL AF4-AF9 inh	Ecoli rRNA inh	Ecoli rRNA inh OD600	Ecoli rRNA inh RFP	T cruzi inh
1	Cc1ccc(S(=O)(=O)c2ccc(Cl)cc2)cc1S(=O)(=O)N(C)CC(=O)O	/	-3	-3.3	-0.2	-1	0.4	2	5	-2.3	-1
2	C=C1N(c2ccccc2)C(=O)OC1(C)C	/	-13	-0.9	-0.6	/	/	/	/	/	3
3	COCCN(CCOC)C(=O)c1ccc(SCc2ccc(C)cc2)c([N+](=O)[O-])c1	8%	-1	3.3	0.1	-7	-4.4	-2	0	-0.8	15
4	COc1ccccc1CN(C)S(=O)(=O)c1cccs1	/	21	-2.3	-0.3	-1	1.6	/	/	/	12
5	CN(C)/C=N/c1cc(=O)n(C)c(=O)n1Cc1ccccc1	-4%	-8	-1.8	-1.7	-5	1.0	0	7	-2.2	-2
6	COc1ccc(C(CC(=O)O)NS(=O)(=O)c2ccc(C)cc2)cc1 (centres undefined)	9%	-14	-2.1	-1.5	1	/	/	/	/	-12
7	Cc1ccc(-c2nnc3sc(CCc4ccccc4)nn23)cc1	0%	0	-1.8	-0.1	/	/	/	/	/	22
8	CCOCCCNC(=O)C1CCC(CNS(=O)(=O)c2ccc(F)cc2)CC1 (centres undefined)	3%	-10	?	0.8	-5	/	/	/	/	0
9	O=C(Nc1ccccn1)C1CCN(S(=O)(=O)c2ccc3c(c2)OCCCO3)CC1	1%	-12	7.7	1.6	3	0.0	2	5	-2.1	-4
10	Cc1ccc([C@@H]2CC=C(C(=O)O)[C@H](c3ccc(Cl)cc3)N2S(=O)(=O)c2ccc(C)cc2)cc1	/	/	/	0.4	5	-6.9	-42	-55	5.0	/
11	CN(C)S(=O)(=O)c1ccc(Cl)c(NC(=O)CN2CCN(c3ccccn3)CC2)c1	1%	0	-4.5	/	/	0.7	4	0	0.4	9
12	C=C(c1ccc(O)cc1)c1ccc(O)cc1	5%	-9	-1.7	-0.2	-11	/	/	/	/	-9
13	COCCOC1CCN(C(=O)c2cc(COc3ccc(-n4cncn4)cc3)on2)CC1	0%	-4	-2.7	-0.1	-4	0.2	/	/	/	-4
14	COc1cc(C2C(C#N)=C(N)Oc3n[nH]c(C)c32)ccc1OC(=O)c1ccccc1 (centres undefined)	17%	-6	2.1	-0.2	-1	/	/	/	/	-9
15	C=C1SC(Nc2c(C)cc(C)cc2C)=NC12CCCCC2	16%	0	2.3	0.9	31	17	-50*	1.8*	-12*	67*
16	O=C(COc1ccccc1C(=O)c1cnn(-c2ccccc2)c1)Nc1ccccc1	/	-4	?	-0.3	9	-3.2	-11	-8	-1.7	5
17	COc1cc2c(cc1OC)CN(S(=O)(=O)/C=C/c1ccccc1)CC2	-8%	7	0.4	0.1	/	3.1	4	2	6.8	2
18	S=C(NCc1ccco1)N1CCN(c2ccccc2Cl)CC1	5%	13	-2.6	-0.1	-3	2.2	-30	-33	-0.1	6
19	O=C(CN1C(=O)NC2(CCCCCC2)C1=O)Nc1ccc(S(=O)(=O)N2CCOCC2)cc1	-3%	?	-1.3	0.6	-2	/	7	-2	0.9	2
20	COc1ccc(C(=O)COC(=O)CCN2C(=O)[C@@H]3[C@H](C2=O)[C@@H]2C[C@H]3C(Br)C2Br)cc1 (some centres undefined)	/	-12	1.6	0.3	-9	/	/	/	/	5
21	Cc1ccccc1NC(=O)CSC(N)=O	0%	8	2.3	-0.2	-8	/	/	/	/	-17
22	CN1C(=O)c2ccccc2C(C(=O)NCCCN2CCCC2=O)C1c1c[nH]c2ccccc12 (centres undefined)	1%	-5	7.1	0.4	3	/	/	/	/	-15
23	O=C(NC12CC3CC(CC(C3)C1)C2)N1CCN(C2CCCCC2)CC1	-1%	-23	-1.1	1.3	-3	0.4	14	-5	1.4	-18
24	O=C(NC1CCCCC1)c1ccc(CS(=O)(=O)c2ccc(Cl)cc2)o1	/	-2	1.7	-0.7	2	-2.0	-29	-36	-25	-30
25	COCCN1C(=O)N[C@@H](c2ccco2)C(C(=O)OC)=C1C	/	-1	-2.0	-1.1	-1	1.5	6	16	0.2	-4
26	CCCNC(=O)C1(S(=O)(=O)c2ccccc2)CC=CC1	/	-8	4.7	-0.1	-7	-4.2	12	3	2.7	-11
27	COc1ccc(/C=C/c2nc3ccccc3c(=O)n2-c2cccc(C(=O)O)c2)cc1	-13%	-10	0.9	0.6	-5	2.0	-1	2	-0.5	3
28	C/C(=N\N=c1/sc2ccccc2n1C)c1ccc(N2CCOCC2)cc1	-6%	-3	1.0	-0.6	0	0.9	12	5	1.8	24
29	COc1cc(C(=O)NCc2ccc(C)cc2)ccc1OC(F)F	/	-4	1.9	-0.4	-2	/	/	/	/	-1
30	Fc1ccc(CNC(=S)Nc2cccc(Cl)c2)cc1	/	-27	2.1	-0.6	4	/	/	/	/	-20
31	CCC(C)n1ncn(-c2ccc(N3CCN(c4ccc(OC)cc4)CC3)cc2)c1=O (centres undefined)	/	17	-0.7	0.6	8	?	13	11	9.3	-8
32	CNc1cc(-n2nc(C)cc2-c2ccccc2)ncn1	-3%	1	0.5	0.1	-2	/	/	/	/	-15
33	C=C1CCC[C@]2(C)C[C@H]3OC(=O)C(CN4CCCCC4CO)[C@H]3CC12 (some centres undefined)	3%	1	7.5	0.2	-82	-0.5	12	3	2.6	-66
34	COc1ccc(OC)c(Cc2nnc(CCC(=O)NC3CCCC3)o2)c1	-8%	-4	?	0.8	0	0.9	13	7	-1.0	-5
35	CCCN1CCN(C(=S)Nc2sc(CC)cc2C(=O)OC)CC1	-12%	-23	-4.9	0.0	-4	3.2	-21	-42	17	/
36	CCCCC(=O)C1=C(N2CCCC2)CC(C)(C)CC1=O	-10%	-8	-3.6	-0.6	-9	/	/	/	/	-12
37	CCOc1ccccc1CN(Cc1ccco1)S(=O)(=O)c1ccc(-n2cnnn2)c(OC)c1	?	-5	1.9	/	/	/	-10	-2	5.7	12
38	CC(C)(C)OC(=O)CC1(C#N)c2ccccc2C(Br)=CN1C(=O)c1ccccc1 (centres undefined)	/	6	1.5	-0.9	11	3.3	9	5	-7.6	32
39	COc1ccccc1NC(=O)c1nn(-c2ccc(OC(F)(F)F)cc2)ccc1=O	1%	10	-4.5	-0.7	4	/	/	/	/	4
40	Cc1nn(C)cc1CNC(=O)Nc1ccc(Cl)cc1	-5%	-8	-7.7	-0.2	-2	/	/	/	/	-7
41	Clc1ccc2nc(CSc3nncn3-c3ccccc3)cn2c1	-1%	7	2.2	0.2	-3	/	/	/	/	-16
42	Cc1ccc2c(c1)N(C(=O)CCC(=O)NCc1cccc(Br)c1)CC(C)O2 (centres undefined)	/	-9	-1.9	-0.8	-6	2.8	-12	-51	-5.9	-5
43	COc1ccccc1Cn1c(CCCO)nc2ccccc21	3%	-2	2.7	0.3	0	/	/	/	/	-5
44	CCc1noc(C)c1C(=O)Nc1cc(S(=O)(=O)N(CC)CC)ccc1N1CCCC1	-12%	5	-0.1	1.1	1	2.1	11	17	1.3	13
45	O=C(Nc1cc([N+](=O)[O-])ccc1N1CCCC1)c1ccccc1	14%	0	-3.8	0.8	4	0.7	-26*	-13*	-1.1*	0
46	Cn1cccc1/C=N/NC(=O)Cc1ccccc1	-4%	-13	-0.6	0.3	-1	-0.5	3	6	-2.2	-12
47	O=C(OC1CCOC1=O)C1CCN(S(=O)(=O)c2ccccc2)CC1 (centres undefined)	4%	/	/	0.6	-2	1.0	24	12	1.7	/
48	O=C(NCCCN1CCCC1=O)c1cc(S(=O)(=O)N2CCOCC2)ccc1Cl	/	3	-1.9	0.7	-3	-2.0	9	4	-2.2	2
49	Cc1cccc(C(=O)NC2=NCCS2)c1	-13%	-7	4.0	0.7	4	-1.5	16	26	2.8	-13
50	COc1ccc(/C=N/Nc2nnc(-c3ncc[nH]3)c3ccccc23)cc1	-2%	-8	-0.5	-0.9	5	/	/	/	/	3
51	COc1ccccc1N(CC(=O)Nc1cccnc1)S(=O)(=O)c1ccccc1	6%	1	2.0	0.3	-9	3.2	0	-5	-0.8	-5
52	O/N=C1/CCc2nonc2/C1=N/O	4%	-2	2.6	0.7	/	/	/	/	/	-21
53	CCOC(=O)CSc1nnc([C@H](C)NC(=O)OC(C)(C)C)o1	0%	1	-2.1	-0.8	-9	/	/	/	/	-1
54	Cc1ccc(OCCCC(=O)Nc2ccc3c(c2)OCCO3)cc1	-6%	/	/	0.7	-3	0.2	-13	-14	-1.2	/
55	CCOC(=O)c1cc(=O)n2nc(-c3ccc(C)cc3)nc2s1	?	-19	2.5	-0.6	2	/	/	/	/	-11
56	CNC(=S)Nc1ccc2[nH]c(=O)[nH]c2c1	-4%	0	1.2	-0.7	-1	-7.9	4	-8	-3.1	-2

Other results.
#	SMILES	Vif TR-FRET	Calb FLC	RanGTP-Impb inh	A1 inh	Beta apoptosis	MLL AF4-AF9 inh	Ecoli rRNA inh	Ecoli rRNA inh OD600	Ecoli rRNA inh RFP	T cruzi inh
57	CCOC(=O)c1cnc2ccc(OCC)cc2c1N(C)Cc1ccccc1	/	1	-3.2	0.7	4	-1.3	-6	-3	2.5	33
58	Cc1ccc(C(=O)Nc2ccc(N3CCN(C)CC3)cc2)cc1C	/	19	6.5	1.5	/	3.2	5	5	-0.3	-11
59	COc1cc(-c2noc(CCC(=O)NC3CCCC3)n2)cc(OC)c1OC	/	34	-7.6	0.2	-2	0.6	-1	-5	-5.4	3
60	COc1cccc(OC)c1C(=O)Nc1ccccc1C(=O)N1CCCCCC1	2%	4	?	0.1	-11	0.5	1	-3	-0.8	-5
61	CC(C)N1C(=O)C2C(c3ccccc3O)NC(C)(C(=O)O)C2C1=O (centres undefined)	-4%	11	4.4	-0.5	/	-2.2	2	2	0.9	-5
62	CCCC(C)NC(=O)Cc1ccc(Br)cc1 (centres undefined)	1%	6	0.8	0.6	5	0.3	16	4	3.7	5
63	O=C(c1ccco1)N1CCN(Cc2ccc(F)cc2)CC1	-2%	12	-1.3	1.0	0	-8.3	16	15	2.2	3
64	COc1ccc(C(=O)C2CCCN(Cc3c[nH]c4ccccc34)C2)c(OC)c1 (centres undefined)	1%	5	1.5	-0.5	-1	9.2	10	4	1.8	49
65	O=C(Cc1ccccc1)N1CCCC1c1ccccc1 (centres undefined)	-4%	20	-1.9	/	-2	/	/	/	/	-9
66	COc1cccc(CNC(C)(C)CO)c1OCc1ccc(Cl)cc1	-4%	-1	0.5	0.7	-1	-13	16	3	4.3	-17
67	CCN(CC(=O)Nc1ccc(C)c(S(=O)(=O)N2CCOCC2)c1)Cc1ccccc1	-1%	-1	5.9	0.6	/	3.7	-2	-9	0.7	-6
68	COc1ccc(C(C)(C)C)cc1S(=O)(=O)n1ccnc1C	8%	-5	?	0.0	-3	-2.0	2	4	-0.5	25
